# H5N1 antiviral: antiviral screen in MDCK cells, H5N1 avian flu | cytopathic effect, luminescence, 72 h; stronger effect = higher value; no value below 0 was filed and about half of the inactive calls have no number; reference of the scale not given here | inhibition, % at 50 µM | 96,000 compounds, 0.07% hits | AID 740; in the data active = inhibition above about 25%
# * hit, by the source's call; i = inactive.
SMILES,H5N1 antiviral
COc1ccc(C(=O)Nc2ccccc2C(=O)N/N=C/c2cccc3ccccc23)cc1,3.0
COc1ccc(CC(=O)c2ccc(O)cc2O)cc1OC,1.3
O=C(c1nsnc1-c1ccccc1O)N1CCCCC1,0.4
Cc1ccc(/C=N/n2c(COc3ccccc3)n[nH]c2=S)s1,0.3
COc1ccc(OCc2nc(C#N)c(N3CCN(c4ccc(OC)cc4)CC3)o2)cc1,1.7
Cn1c(=O)oc2cc(S(=O)(=O)N3CCN(c4ccc(F)cc4)CC3)ccc21,0.4
Cc1ccc(C2CC(C(F)(F)F)n3nc(C(=O)NCC4CCCO4)cc3N2)cc1 (stereo unspecified),i
Cc1ccc(-n2c(=O)c3sccc3n(CC(=O)NCc3ccco3)c2=O)cc1F,i
CCn1c(-c2cc(OC)ccc2OC)csc1=Nc1c(C)n(C)n(-c2ccccc2)c1=O,i
Cc1noc(C)c1CSc1nnc2ccc3ccccc3n12,1.9
CC(=O)Nc1ccc(NC(=O)C(C)OC(=O)c2ccc(OCc3c(C)noc3C)cc2)cc1 (stereo unspecified),i
COc1ccc(NC(=O)C2CCN(S(=O)(=O)c3ccc(C)cc3)CC2)cc1OC,i
CC1CC(=O)N(CC(=O)NCc2ccco2)c2ccccc2S1 (stereo unspecified),1.9
O=C1CC(NCCN2CCOCC2)C(=O)N1Cc1ccc(N2CCCC2=O)cc1 (stereo unspecified),0.7
O=C(c1ccccc1)c1ncc(C(F)(F)F)cc1Cl,0.9
CCn1c(SCCC(C)C)nnc1-c1c[nH]c2ccccc12,6.2
CCOC(=O)N1CCN(c2c(N3CCN(c4ccc(OC)cc4)CC3)c(=O)c2=O)CC1,1.6
COc1ccc(C(=O)Nn2cnnc2)cc1,0.2
Cc1cc(C)cc(-n2nnnc2-c2cn(C)nc2C(F)(F)F)c1,0.8
N#CCCCCn1c(-c2cncs2)nc2ccccc21,0.3
C=CCN1C(=O)C2C(C(=O)NCc3ccccc3)C3(C)C=CC2(O3)C1C(=O)NC(C)(C)C (stereo unspecified),0.4
O=C(CSc1nc2scc(-c3ccco3)c2c(=O)n1-c1ccccc1)N1CCOCC1,1.0
Cc1cc(C)n(-c2nc3ccccc3nc2N2CCC(C)CC2)n1,1.1
COC(=O)c1c(N)nc(C)n1-c1ccc(OC)cc1,0.2
Cc1ccccc1NC(=O)CSCCO,i
CCN(CC)c1ccc(NC(=O)CN2CCN(c3nc(C)cc(C)n3)CC2)cc1,0.2
O=C1CS/C(=N\c2ccccn2)N1C1CCCCC1,i
C=CCNc1nc2c(c(=O)[nH]c(=O)n2C)n1CCCCC,i
Cc1ccc(Sc2ccc(C(=O)NC(C)C)cc2[N+](=O)[O-])cc1,i
CCCOc1ccc(N2C(=O)CC(N(Cc3ccc(S(N)(=O)=O)cc3)C(=O)CC)C2=O)cc1 (stereo unspecified),1.3
CCOc1cc(S(=O)(=O)N(CC)CC)ccc1Br,0.5
COc1ccc(C(=O)NCc2ccc(-c3nc4ccccc4s3)cc2)cc1,i
CNC(=O)c1ccccc1S(=O)c1ccccc1C#N (stereo unspecified),i
O=C1CSC(=S)N1c1cccnc1,i
O=C(OCc1cc(=O)n2cc(Br)ccc2n1)C1COc2ccccc2O1 (stereo unspecified),i
Cc1nc2cc(NC(=O)NCCC3=CCCCC3)ccc2o1,i
C/C(CC(=O)Nc1ccc(Cl)c(Cl)c1)=N\NC(N)=S,i
Cc1oc(-c2cccc(Cl)c2)nc1CN1CCCC(C(=O)NCCCN2CCOCC2)C1 (stereo unspecified),i
COCCOC(=O)c1[nH]c2c(c1C)C(=O)CC(c1ccco1)C2 (stereo unspecified),1.1
CCCCC(=O)Nc1ccc(NC(=O)CCCC)nc1,0.4
Cc1cccc(N2CCN(CCc3ccccc3)CC2)c1C,0.5
Cc1ccccc1CS(=O)(=O)c1cnc2ccccc2n1,0.8
CCN(Cc1nc2cc(OC)c(OC)cc2c(=O)[nH]1)C(=O)c1ccc(S(=O)(=O)N(C)C)cc1,0.5
CCN1CCN(CCn2c(=S)[nH]c3cc4c(cc3c2=O)OCO4)CC1,1.3
Cc1ccc(C2(C(F)(F)F)N=C3Sc4cc(C)cc(C)c4N3C(=O)N2)cc1 (stereo unspecified),i
Cc1ccc(-c2nc(C3CCCN(S(=O)(=O)c4ccc(C(F)(F)F)cc4)C3)no2)cc1 (stereo unspecified),1.4
CCCOc1ccc(C2/C(=C(/O)c3ccc(F)cc3)C(=O)C(=O)N2CCCN(C)C)cc1 (stereo unspecified),i
CN1/C(=C\C(=O)c2ccco2)C(C)(C)c2ccccc21,5.0
CCOCCSc1nc2c(c(=O)[nH]c(=O)n2C)n1CCCc1ccccc1,1.6
CC(C)C(NC(=O)c1ccc(Cl)cc1)C(=O)O (stereo unspecified),0.6
COC(=O)CNC(=O)C(C)NC(=O)CNC(=O)OCc1ccccc1 (stereo unspecified),i
CC(C)(C)NC(=S)Nc1ccc(Br)cc1,i
O=C(CCC1CCCC1)N1CCN(C(=O)C2CC2)CC1,i
Nc1nnc(Cc2ccc(Cl)cc2Cl)s1,i
Nc1nncn1C(=O)c1cccs1,0.1
COc1ccccc1N1CCN(C(CNS(=O)(=O)c2cccs2)c2cccnc2)CC1 (stereo unspecified),0.3
O=C(NCc1ccco1)C1CCN(C(=O)Cc2ccccc2)CC1,0.4
Cc1ccc(CNC(=O)CN2CCC(C(N)=O)CC2)cc1,i
CSc1cc(C)nc(N(C)C(C)=O)n1,0.3
CC(C)Oc1ccc(C(=O)NC2CCS(=O)(=O)C2)cc1 (stereo unspecified),0.1

# (list continues)
SMILES,H5N1 antiviral
CCOC(=O)C(C)N1N=C(/C=C/c2ccc(C)cc2)CCC1=O (stereo unspecified),i
COc1cc(C(=O)Nc2nnc(C)s2)cc(OC)c1OC,4.1
CCCCC(=O)NCCNc1nc2c(c(=O)n(C)c(=O)n2C)n1Cc1ccccc1,0.3
O=C(Nc1ncc2c(n1)-c1ccccc1CC2)c1ccccc1,3.3
CCN(CC)c1ccc(CNc2ccc(Br)cn2)cc1,0.1
CCOC(=O)c1cccc(C(=O)OCC)n1,i
COC(=O)COn1c(SC(C)C)nc2ccccc2c1=O,0.5
COC(=O)c1ccc(N2CCN(S(=O)(=O)c3ccc(C)cc3)CC2)c([N+](=O)[O-])c1,1.5
CN(C)c1ccnc(-n2cccc2/C=N/OCc2ccc(F)cc2Cl)c1C#N,0.8
O=C(O)C1CCCN1S(=O)(=O)c1ccc2ccccc2c1 (stereo unspecified),0.7
CCOC(=O)c1c(C)nc2ccccc2c1C,1.0
O=C(Nc1nnc(CCN2CCOCC2)s1)c1ccccc1,0.4
Cc1onc(-c2ccccc2)c1C(=O)N1CCN(CCc2ccccc2)CC1,1.1
CCCCOC(=O)NC1CCS(=O)(=O)C1 (stereo unspecified),i
CC(C)C(NC(=O)C1CCCCC1)C(=O)Nc1ccccn1 (stereo unspecified),0.5

# An excerpt from the list above, for reference:
SMILES,H5N1 antiviral
Cc1ccc(CNC(=O)CN2CCC(C(N)=O)CC2)cc1,i
CSc1cc(C)nc(N(C)C(C)=O)n1,0.3
CC(C)Oc1ccc(C(=O)NC2CCS(=O)(=O)C2)cc1 (stereo unspecified),0.1
CCOC(=O)C(C)N1N=C(/C=C/c2ccc(C)cc2)CCC1=O (stereo unspecified),i
COc1cc(C(=O)Nc2nnc(C)s2)cc(OC)c1OC,4.1
CCCCC(=O)NCCNc1nc2c(c(=O)n(C)c(=O)n2C)n1Cc1ccccc1,0.3
O=C(Nc1ncc2c(n1)-c1ccccc1CC2)c1ccccc1,3.3
CCN(CC)c1ccc(CNc2ccc(Br)cn2)cc1,0.1
CCOC(=O)c1cccc(C(=O)OCC)n1,i
COC(=O)COn1c(SC(C)C)nc2ccccc2c1=O,0.5
COC(=O)c1ccc(N2CCN(S(=O)(=O)c3ccc(C)cc3)CC2)c([N+](=O)[O-])c1,1.5
CN(C)c1ccnc(-n2cccc2/C=N/OCc2ccc(F)cc2Cl)c1C#N,0.8
O=C(O)C1CCCN1S(=O)(=O)c1ccc2ccccc2c1 (stereo unspecified),0.7
CCOC(=O)c1c(C)nc2ccccc2c1C,1.0
O=C(Nc1nnc(CCN2CCOCC2)s1)c1ccccc1,0.4
Cc1onc(-c2ccccc2)c1C(=O)N1CCN(CCc2ccccc2)CC1,1.1
CCCCOC(=O)NC1CCS(=O)(=O)C1 (stereo unspecified),i
CC(C)C(NC(=O)C1CCCCC1)C(=O)Nc1ccccn1 (stereo unspecified),0.5

# Next records follow.
SMILES,H5N1 antiviral
C#CCn1c(S(=O)(=O)Cc2ccccc2Cl)nc(-c2ccccc2)c1-c1ccccc1,0.6
Clc1cccc(/C=N/Nc2ncnc3ccccc23)c1,i
COc1cc(/C=N/NC(=O)COc2ccccc2C)ccc1OC(=O)c1cccs1,0.8
COCc1cc(C)n(CC(=O)Nc2ccccc2C(=O)OC)c(=O)c1C#N,0.1
O=c1[nH]ncn1-c1ccccc1C(F)(F)F,i
O=S(=O)(NCCO)c1cccc2cccnc12,i
CC(=O)Nc1ccc(NS(=O)(=O)c2ccc3ccccc3c2)cc1,0.4
Cc1ccc2nc(SC(C)C(=O)NCc3ccco3)[nH]c2c1 (stereo unspecified),i
CCCN(CCC)S(=O)(=O)c1cccc(C(=O)Nc2ccc3c(c2)OCO3)c1,i
CCN(CCCNC(=O)COc1cc(=O)n(C)c2ccccc12)c1cccc(C)c1,i
CCOC(=O)C1CCCN(c2nnnn2-c2ccccc2)C1 (stereo unspecified),0.6
COc1cc2c(cc1OC)C1(Nc3c-2c(-c2ccccc2)nn3-c2ccccc2)C(=O)Nc2ccccc21 (stereo unspecified),1.2
C=CCOc1ccc(/C(O)=C2/C(=O)C(=O)N(CCCn3ccnc3)C2c2cccs2)cc1 (stereo unspecified),0.3
CC(C(=O)OCC(=O)Nc1ncc(Cl)cc1Cl)N1C(=O)c2ccccc2C1=O (stereo unspecified),i
CCC(CC)C(=O)Nc1cccc(C(=O)c2ccccc2)c1,i
O=C(CCS(=O)(=O)c1cccc2nsnc12)N1CCN(Cc2ccc3c(c2)OCO3)CC1,0.2
COc1cccc(N2CCN(Cc3nc(N)nc(N4CCCc5ccccc54)n3)CC2)c1,1.0
CN(C)c1ccc(NC(=O)c2cccc(N3C(=O)C4C5C=CC(C5)C4C3=O)c2)cc1 (stereo unspecified),i
NC(=O)c1ccccc1NC(=O)CCc1ccccc1,i
Cc1sc(NC(=O)c2ccco2)c(C(c2cccnc2)N2CCCC2)c1C (stereo unspecified),0.4
COc1ccc(OC)c(Nc2nc(N)nc(-c3cc4ccccc4o3)n2)c1,i
CCOC(=O)C1CCCN(Cc2ccc(OCC)cc2)C1 (stereo unspecified),i
CCn1c(N)nc2ccccc21,i
Cc1ccccc1NC(=O)CNc1ccccc1C(=O)NCc1ccco1,i
COc1cccc(NC(=O)Cn2c(=O)c3c(ncn3Cc3ccccc3)n(Cc3ccccc3)c2=O)c1,0.6
CCOC(=O)c1cc(C#N)c(N2CCCC2)nc1-c1ccccc1,4.2
CCN(CC)c1ccc(C2=NNC(=O)CC2C)cc1[N+](=O)[O-] (stereo unspecified),0.3
CN1CCN(S(=O)(=O)c2ccc3ccccc3c2)CC1,i
CC(=O)n1cc(-c2ccncc2)c2ccccc21,4.4
Cc1cc(NC(=O)CSc2nc3c(sc4ccccc43)c(=O)n2CCCN2CCOCC2)n[nH]1,0.6
CCCCN(C)C(=O)C1CCN(C/C(C)=C/c2ccccc2)CC1,0.5
CC(CCc1ccccc1)NC(=O)CSc1nnnn1C (stereo unspecified),i
CCN1CC=C2C(C#N)=C(N)C(C#N)(C#N)C(CCc3ccccc3)C2C1 (stereo unspecified),i
Cn1cccc1C(C(=O)NC1CCCCC1)N(C(=O)Cc1cccs1)C1CC1 (stereo unspecified),1.0
C/C(CC(=O)Nc1cccc(Cl)c1)=N\NC(=O)Cc1ccc(Cl)cc1,i
Cc1ccc(C(=O)c2cc(C)sc2NC(=O)CN2CCN(C(=O)c3ccco3)CC2)cc1,1.2
Cc1ccc(N(CC(N)=O)C2SC(=O)N(C)C2=O)cc1 (stereo unspecified),i
COCCOc1nc2c(c(=O)n(C)c(=O)n2C)n1Cc1cccc(OC)c1,2.0
COc1ccc(-c2cc(C(=O)N3CCCc4ccccc43)no2)cc1,i
CCCOc1ccc(/C=C/C(=O)Nc2ccc([N+](=O)[O-])cc2C)cc1,i
CC(C)C(=O)NC(=S)Nc1ccccc1C(F)(F)F,i
Cc1ccc(CN(C(=O)Cn2nnc3ccccc32)C(C(=O)NCc2ccco2)c2cccs2)cc1 (stereo unspecified),i
O=C(c1cc2ccccc2o1)N1CCN=C1SCc1cccnc1,1.0
CCC(C)Sc1nc(O)cc(=O)[nH]1 (stereo unspecified),i
Cc1cc(C(=O)NC(C)c2ccc3c(c2)OCO3)cs1 (stereo unspecified),i
Cc1csc(NC(=O)C2C3C=CC(C3)C2C(=O)O)n1 (stereo unspecified),i
CC1CCC(NC(=O)C2CCN(C(=O)NC3CCCCC3)CC2)CC1 (stereo unspecified),0.5
COC(=O)Cn1c(=O)n(CCc2ccccc2)c(=O)c2c3c(sc21)CCCC3,0.1
O=C(NC1CCCC1)c1ccc(COCC(F)(F)C(F)F)o1,0.4
CC(=O)C1=C(O)C(=O)N(c2nnn(C)n2)C1c1cccs1 (stereo unspecified),1.0
CCc1c(C)sc(NC(=O)c2cc(CC(C)C)on2)c1C#N,i
COc1ccc(-c2noc(C3CCCN(S(=O)(=O)c4cccc(Cl)c4)C3)n2)cc1OC (stereo unspecified),0.4
COC(=O)C1=C(C)N(c2cccc(Cl)c2)C(=O)C1,0.8
O=S(=O)(c1cnc[nH]1)N1CCc2ccccc21,i
CCCCOC(=S)NC(=O)c1sc2ccccc2c1Cl,i
Cc1cc(C)n2c(SCC(=O)Nc3c(C)n(C)n(-c4ccccc4)c3=O)nnc2n1,2.9
CCOCCOC(=O)C1=C(C)N(C)C(=O)NC1c1ccccc1Cl (stereo unspecified),0.2

# From PubChem

# This is a subset; the hit share may differ from the screen's.
